Sfp PPTase inh – inhibitors of Bacillus subtilis Sfp phosphopantetheinyl transferase; Q9F4F7; 3.5% of 310,000 active; Biochemical Sfp PPTase activity, qHTS; AID 1490; Potency, µM, for inactives: max response, negative = inhibition, hits mostly inhibitors; active = well fitted inhibition curve with a large enough effect; inconclusive = small, poorly fitted or top-dose-only effect, or another doubt; inactive = no such curve, though single readings can be large or run the other way;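 note: the enzyme is Sfp with the accession as filed and its product quenches rhodamine fluorescence; potency is the fitted concentration of half-maximal effect; 0% = enzyme reaction without inhibitor and -100% = no enzyme wells; top concentration of the series not given in the record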
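After 15 min at room temperature with compound, 15 nM Sfp received 5 uM rhodamine-CoA plus 12.5 uM BHQ-2-ybbR (50 mM Hepes pH 7.6, 10 mM MgCl2). Rate came from the fluorescence difference over 30 min, ex 525/em 598 nm.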
ClpP mod – qHTS Assay for Activators of ClpP; Potency, µM (titrated, usually from 57.5 µM), for inactives: at the top dose activity change, negative = active; purified B. subtilis ClpP, FRET peptide cleavage, 20 min; 1.9% of 340,000 active; ATP-dependent Clp protease proteolytic subunit (Bacillus subtilis (strain 168)), P80244; active = well fitted falling curve with a large enough effect; inconclusive = small, poorly fitted or top-dose-only effect; inactive = no such curve, though single readings can be large or run the other way; note: potency is the fitted concentration of half-maximal effect; the source files actives as falling curves though it sought activators and does not explain the sign; nearly all actives have a fitted effect of over 65% in size; many hits overshoot -100%
Target sequence (P80244 whole entry, looked up): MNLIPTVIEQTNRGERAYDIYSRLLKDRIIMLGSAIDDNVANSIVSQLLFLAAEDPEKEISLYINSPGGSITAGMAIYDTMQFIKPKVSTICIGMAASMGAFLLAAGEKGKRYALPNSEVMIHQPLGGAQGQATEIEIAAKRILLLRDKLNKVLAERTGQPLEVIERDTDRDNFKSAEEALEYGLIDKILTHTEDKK
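Buffer: 100 mM Tris/HCl pH8, 100 mM KCl, 0.05% low protease BSA, 2.5% glycerol, 0.01% Tween-20. ClpP 10 microg/mL final; 20 min RT; delta FRET normalized to ADEP and DMSO controls.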
Menin MLL FP FL – menin-MLL binding inhibition, fluorescein peptide; Fluorescence polarization, fluorescein-MLL peptide displacement from menin; FP activity change, % at 61.4 µM; 290,000 tested, under 10 active; inconclusive = falling polarisation curve, or a change in total fluorescence; inactive = total fluorescence flat and polarisation flat or rising; no compound was filed as active; the % refers to the polarisation; negative = inhibition;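 note: % of control where 0% means no effect; inhibitors lower the polarisation; unlabelled MLL peptide was the positive control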
D2 PAM – human D2 receptor positive allosteric modulation. DiscoveRx D2 beta-arrestin cells, luminescence, 90 min; 100% = 57 uM dopamine signal. potentiation, % (test concentration not listed). 0.23% of 360,000 active. AID 624464; active = potentiation of 50% or more; inconclusive = 30% to 50%; inactive = 30% or less;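 note: compound concentration not given in the record; tested on top of an EC20 dose of dopamine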
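PathHunter D2 cells, attached overnight at 37 deg C, received compound in DMSO plus dopamine at EC20 (50 nM final) for 90 min at 37 deg C. Beta-arrestin recruitment was read as luminescence after 1 h with detection reagent at ambient temperature.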
gsp antag – gsp mutant antagonism. 0.4% of 340,000 active. Potency, µM (series often up to 76.9 µM), inactives show at the highest dose activity change, negative = inhibition, usual class: inhibitors. AID 624288. gsp-mutant cells, cAMP HTRF, 30 min; control for the full effect not named in the record; active = falling curve of any shape with a large fitted effect; inconclusive = falling curve, mostly with a smaller effect; inactive = flat or rising curve; cell line not stated here;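 note: intracellular cAMP measured with PDE inhibitor Ro 20-1724 present during compound exposure; potency is the fitted concentration of half-maximal effect; % is set by controls: 0 for no effect and ±100 for the full control effect; nearly all actives have a fitted effect of over 65% in size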
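Cells, 2000/well, grown 16–24 h in DMEM 10% FBS with 0.5 mg/ml G418, then compounds plus […] (300 uM addition stock), 30 min at 37C. cAMP read by HTRF (cAMP-d2 and anti-cAMP antibody-K in lysis buffer) after 30 min RT.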
TRPV1 PAM – enhances activation of the human vanilloid receptor TRPV1. 0.02% of 320,000 active. Q8NER1. TRPV1-expressing cells, Fluo-8 calcium influx, capsaicin EC20 potentiation; host cell line not named in the record; control for the full effect not named in the record. potentiation, % at 8.33 µM. AID 540277; active means potentiation above 80%; inconclusive means 30% to 80%; inactive means below 30%; note: 0% is about no effect
Target sequence (Q8NER1 whole entry, looked up): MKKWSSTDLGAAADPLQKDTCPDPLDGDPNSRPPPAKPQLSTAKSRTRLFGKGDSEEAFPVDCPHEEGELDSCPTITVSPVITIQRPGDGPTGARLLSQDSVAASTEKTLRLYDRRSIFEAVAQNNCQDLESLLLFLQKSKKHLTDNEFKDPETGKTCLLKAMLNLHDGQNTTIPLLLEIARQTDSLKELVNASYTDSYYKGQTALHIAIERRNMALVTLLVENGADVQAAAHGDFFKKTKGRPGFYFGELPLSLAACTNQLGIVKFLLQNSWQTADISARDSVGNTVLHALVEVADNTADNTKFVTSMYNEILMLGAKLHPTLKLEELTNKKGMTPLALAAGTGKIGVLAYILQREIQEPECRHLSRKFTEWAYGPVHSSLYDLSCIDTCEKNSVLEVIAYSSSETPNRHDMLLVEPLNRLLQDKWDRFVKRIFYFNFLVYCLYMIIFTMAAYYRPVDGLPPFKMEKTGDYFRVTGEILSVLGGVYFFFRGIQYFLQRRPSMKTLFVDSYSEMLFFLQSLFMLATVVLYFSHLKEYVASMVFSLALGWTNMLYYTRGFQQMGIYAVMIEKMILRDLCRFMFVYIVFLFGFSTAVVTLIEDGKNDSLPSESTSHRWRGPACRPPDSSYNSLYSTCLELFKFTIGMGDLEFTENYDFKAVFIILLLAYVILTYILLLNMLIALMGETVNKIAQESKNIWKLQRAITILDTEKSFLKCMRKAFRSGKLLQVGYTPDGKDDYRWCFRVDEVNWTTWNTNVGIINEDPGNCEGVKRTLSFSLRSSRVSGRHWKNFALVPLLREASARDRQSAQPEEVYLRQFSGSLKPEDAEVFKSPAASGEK
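Cells expressing TRPV1 were dye-loaded with Fluo-8 and read kinetically: 10 s baseline, 3 min after compound (agonist portion), then 2 min after EC20 capsaicin (allosteric enhancer portion). Calcium-bound dye fluorescence at 480/520 nm.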
gsp agonist – activates gsp, the McCune-Albright syndrome mutation; 0.13% of 340,000 active; gsp mutant cells, cAMP HTRF, 30 min; control for the full effect not named in the record; Potency, µM (series often up to 76.9 µM), for inactives: at the highest dose activation (cAMP increase), actives largely listed as activators; AID 624287; active = well fitted activation curve with a large enough effect; inconclusive = small, poorly fitted or top-dose-only effect, or another doubt; inactive = no such curve, though single readings can be large or run the other way; cell line not stated here;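 note: phosphodiesterase inhibitor Ro 20-1724 added with compounds to block cAMP breakdown; potency is the fitted concentration of half-maximal effect; nearly all actives have a fitted effect of over 60% in size; about a fifth of the inactives were tested at one dose only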
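Cells stably selected in G418 were plated at 2000/well, grown 16-24 hr, then given compounds in DMSO with the PDE inhibitor […] (300 uM solution added) for 30 min at 37C; cAMP was read by HTRF.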
The depositor's hits bear a star; ? = inconclusive; nt = not tested or not shown; & = joins results of further samples; [ ] = dose if it differs, or a comment.

SMILES | Sfp PPTase inh | ClpP mod | Menin MLL FP FL | D2 PAM | gsp antag | TRPV1 PAM | gsp agonist
Cc1ccc(-n2nc3c(c2NC(=O)c2ccco2)CS(=O)C3)cc1 (stereo not given) | 11% | -0.7% | -0.9 | -14 | -11% | 1 | -31%[inhibitor]
COc1ccc(C(=O)N2N=C(c3cccc(OC)c3)CC2(O)C(F)(F)F)cc1 (stereo not given) | 50µM* | nt | 5.0 | -1 | -11% | -5 | -22%[15.4 µM]
COc1ccccc1CO/N=C/NC(=O)c1c(OC)ccnc1Oc1ccc(F)cc1 | 3% | 0.4% | 6.1 | -3 | -9% | -11 | -44%
Cc1cc(C)n2nc(SCC(=O)N(C)c3ccccc3)nc2n1 | 4% | -0.5% | -1.5 | 4 | -8% | 0 | 5%
Clc1cc(-c2ccccc2)nc(-c2ccccc2)n1 | nt | -5.2% | nt | -7 | 8% | nt | 5%[15.4 µM]
CC(SC1=NCCS1)C(=O)Nc1nnc(-c2ccc(F)cc2)s1 (stereo not given) | 8% | -5.5% | -0.1 | -8 | -6% | 13 | 7%
CCOC(=O)CN1C(=O)C(=O)N(Cc2ccccc2)C1=O | -1% | -1.7% | 0.0 | -3 | 6% | 23 | -21%
CCC(C)NC(=O)C1CCN(c2nc(C)cc(C)n2)CC1 (stereo not given) | 13% | -28% | 1.9 | 0 | 18% | 16 | 0%
CCOC(=O)Cc1csc(NC(=O)c2ccc(C)o2)n1 | 2% | -1.2% | 3.0 | -5 | 3% | -2 | 6%
Cc1cc(C)cc(-n2ncc3c2CCCC3NC(=O)C2CCC2)c1 (stereo not given) | 10% | 1.7% | nt | -1 | 1% | -9 | -2%
COc1ccc(-n2c3c(c(=O)[nH]c2=O)C(NC(C)=O)(C(F)(F)F)C(=O)N3)cc1 (stereo not given) | -5% | -2.1%&1.7% | 1.1 | -4 | 10% | -1 | -6%[15.4 µM]
CC1CCCN(c2nc(NCc3ccco3)nc(N)c2[N+](=O)[O-])C1 (stereo not given) | -7% | 0.7% | 0.2 | -7 | 5% | 2 | 3%
Cc1ccc(-c2csc(N(CCc3ccccc3)C(=O)COc3ccccc3)n2)cc1 | 15% | 0.1% | 2.5 | -21 | 0% | nt | ?
COc1ccc(-c2nc(C(N)=O)c3[nH]c(=O)n(-c4cccc(Cl)c4)c3n2)cc1OC | ? | -14% | 4.6 | -22 | -20% | 25 | -32%[inhibitor]
O=C(O)c1ccc(Nc2ccc(F)c(F)c2)c([N+](=O)[O-])c1 | ? | -0.3% | -9.4 | -6 | -41% | -10 | 23%[15.4 µM]
CCCC(=O)Nc1cc(-c2nn(C)c(=O)c3ccccc23)ccc1N1CCOCC1 | 5% | 0.0% | 4.5 | 5 | 10% | 4 | 16%
COc1ccc2[nH]c3c(=O)n(CCCCC(=O)N4CCCC4)c(=S)[nH]c3c2c1 | -9% | -12% | -2.4 | -20 | -12% | 11 | 23%
CC(C)(C)C1CCC(=NNC(=O)CN(c2ccccc2)S(C)(=O)=O)CC1 (stereo not given) | -1% | -1.3% | 4.3 | -13 | 11% | 4 | -8%
CC(C)=CC(=O)OCC(=O)Nc1ccc(Cl)cn1 | 14% | -1.5% | 2.1 | 7 | 5% | -11 | 32%
CC1=C(C(=O)NCc2ccccn2)C2(CCC(C)CC2)OC1=O (stereo not given) | -3% | -0.5% | 2.5 | -7 | 7% | -3 | -2%
COc1ccc(OC)c(NC(=O)C2CCN(S(C)(=O)=O)CC2)c1 | 0% | -0.3% | -1.6 | 20 | -1% | -15 | -50%[inhibitor]
OC1COC(c2ccccc2)OC1C1OC(c2ccccc2)OCC1O (stereo not given) | nt | -1.9% | nt | -9 | 7% | nt | nt
CN(C)C1=NC[C@H](Cc2ccccc2)N1CCC1CCCC1 | nt | 1.4% | nt | -15 | 11% | -14 | nt
COc1ccccc1C(=O)N1CC(=O)Nc2ccc(C)cc2C1c1ccc(F)cc1 (stereo not given) | 2% | nt | -3.0 | -2 | -3% | 21 | -5%
Oc1c(C=C2N=c3ccccc3=N2)sc(=S)n1-c1ccccc1 | 79µM* | -1.3% | ? | 3 | 7% | -2 | 4%
COc1ccc(S(=O)(=O)N2CCCCCC2)cc1NC(=O)c1ccccc1 | 18% | 108% | nt | -19 | -10% | -13 | -4%
COc1ccccc1N1CCN(C(c2cccs2)c2nnnn2C2CCCC2)CC1 (stereo not given) | 0% | -1.2% | 3.3 | -10 | -12% | 16 | -10%
N=C1S/C(=C\c2ccco2)C(=O)N1c1ccc2c(c1)OCO2 | ? | nt | ? | -14 | -6% | -7 | -11%
CC(=O)Cn1ncc(Br)c(Br)c1=O | -3% | nt | 2.1 | -6 | -4% | 1 | 33%
COCCSc1nnc(NC(=O)C2CCN(C(=O)c3ccco3)CC2)s1 | 9% | nt | -6.7 | -5 | 0% | -7 | -9%
CC1CCCN(C(=O)NC2CC(=O)N(c3ccc4c(c3)OCCO4)C2)C1 (stereo not given) | nt | 2.9% | nt | 14 | 9% | -5 | 9%
Cc1nn(C(=O)N2CCOCC2)c(C)c1CN1C(=O)c2ccccc2C1=O | nt | -0.2% | nt | -12 | 10% | nt | 20%
Cc1ccc(C(=S)N2CCN(Cc3ccccc3)CC2)s1 | 5µM* | nt | -3.6 | -9 | nt | -4 | -6%[15.4 µM]
COc1ccc(S(=O)(=O)N2CCOCC2)cc1NC(=O)c1cc2c(s1)CCCC2 | -11% | 1.6% | 6.0 | 1 | 3% | 11 | 10%
O=C(NCCCN1CCCC1=O)C1CCN(S(=O)(=O)c2cccc(Cl)c2Cl)CC1 | nt | -0.2% | nt | -1 | 5% | 0 | -29%
CC(=O)Nc1ccc(CN2CCCC(C(=O)c3cccc(C(F)(F)F)c3)C2)cc1 (stereo not given) | -8% | -0.1% | 3.2 | -12 | -4% | -12 | -26%
CC(NS(C)(=O)=O)C(c1cccs1)N1CCN(c2ccccc2F)CC1 (stereo not given) | nt | 0.1% | nt | -10 | -5% | nt | -28%
Cc1ccc(OCC(=O)N(C)CC(=O)Nc2ccccc2Cl)c([N+](=O)[O-])n1 | nt | -2.0% | nt | 11 | 8% | 6 | -2%
COc1cccc(NC(=S)NCc2cccs2)c1 | 15% | 1.2% | 1.9 | -13 | 8% | -15 | -3%
Cc1cccc(NC(=O)CN2C(=O)S/C(=C\c3ccc(O)c([N+](=O)[O-])c3)C2=O)c1 | -8% | nt | -2.1 | -8 | ? | 84* | 4%
N#Cc1c(SCC(=O)Nc2nc3ccc(Br)cc3s2)sc2c(O)cc(=O)[nH]c12 | -8% | -2.7% | ? | -6 | 3% | 3 | 25%
COCCNC(=O)C(=O)NCC(c1ccc2c(c1)OCO2)N1CCN(c2ccc(F)cc2)CC1 (stereo not given) | 11% | -3.6% | -10 | -4 | 5% | 4 | 15%
COc1ccc(NC(=O)C(=O)Nc2cccc3ccccc23)c(OC)c1 | 8% | -6.0% | ? | -8 | -12% | -4 | 19%[15.4 µM]
COc1cc(Cl)ccc1OCc1cc(C(=O)N(C)C2CCOC2)no1 (stereo not given) | 17% | -0.4% | nt | -2 | 15% | -4 | 16%
Cc1ccc2c(CN(C)Cc3cccc(F)c3)cc(=O)oc2c1 | -9% | -1.4% | 6.1 | -2 | -13% | -16 | 7%
Cc1ccc(S(=O)c2ccc(C)cc2)cc1 | 12% | 0.4% | 0.7 | -4 | -14% | -21 | -5%
CCCCC(=O)N1CCCC(C)C1 (stereo not given) | 12% | nt | 4.1 | -1 | 5% | -18 | 5%[15.4 µM]
COC(=O)Cn1cnc2sc(C)c(S(=O)(=O)N3CCC(C)CC3)c2c1=O | 20% | -0.6% | -1.7 | -9 | 4% | 5 | -8%
CCCC[C@@H]1C[C@H]1[C@@H](NC(=O)c1ccco1)c1ccc(Cl)cc1 | -7% | 1.0% | 5.4 | 1 | -3% | -20 | nt
O=c1c(Cc2c(F)cccc2Cl)c(O)ccn1Cc1ccc(F)cc1 | 19% | -0.3% | 0.0 | -5 | 13% | 17 | -28%
O=C(CCC(=O)N1CCN(S(=O)(=O)c2ccc(Cl)cc2)CC1)NCc1cccc(C(F)(F)F)c1 | nt | 2.3% | nt | -1 | 35µM* | nt | 2%
CS(=O)(=O)Nc1ccc(C2=NN(C(=O)c3ccco3)C(c3cccc(F)c3)C2)cc1 (stereo not given) | -22% | nt | -1.1 | 1 | ? | 4 | -23%
COc1cc(CNCCO)cc(Br)c1OCc1ccccc1Cl | -3% | 1.5% | -7.2 | -34 | 25% | -8 | -13%
CCC1CCCCN1CCCNC(=O)Cn1ncn2nc(-c3ccc(OC)cc3)cc2c1=O (stereo not given) | 6% | 3.6% | nt | -29 | 16% | -1 | 28%
CC(C)CCN1CC(O)=C(c2nc3ccccc3[nH]2)C1=N | 21% | -4.4% | -0.7 | -11 | 6% | -14 | -28%

Copied from the list:
O=C(CCC(=O)N1CCN(S(=O)(=O)c2ccc(Cl)cc2)CC1)NCc1cccc(C(F)(F)F)c1 in D2 PAM = -1
CC(C)CCN1CC(O)=C(c2nc3ccccc3[nH]2)C1=N in gsp agonist = -28%
CCC1CCCCN1CCCNC(=O)Cn1ncn2nc(-c3ccc(OC)cc3)cc2c1=O (stereo not given) in Sfp PPTase inh = 6%
COC(=O)Cn1cnc2sc(C)c(S(=O)(=O)N3CCC(C)CC3)c2c1=O in gsp agonist = -8%

Grouped by structure, those above containing a nitro group on carbon (4)
SMILES | Sfp PPTase inh | ClpP mod | Menin MLL FP FL | D2 PAM | gsp antag | TRPV1 PAM | gsp agonist
CC1CCCN(c2nc(NCc3ccco3)nc(N)c2[N+](=O)[O-])C1 (stereo not given) | -7% | 0.7% | 0.2 | -7 | 5% | 2 | 3%
O=C(O)c1ccc(Nc2ccc(F)c(F)c2)c([N+](=O)[O-])c1 | ? | -0.3% | -9.4 | -6 | -41% | -10 | 23%[15.4 µM]
Cc1ccc(OCC(=O)N(C)CC(=O)Nc2ccccc2Cl)c([N+](=O)[O-])n1 | nt | -2.0% | nt | 11 | 8% | 6 | -2%
Cc1cccc(NC(=O)CN2C(=O)S/C(=C\c3ccc(O)c([N+](=O)[O-])c3)C2=O)c1 | -8% | nt | -2.1 | -8 | ? | 84* | 4%

Source: PubChem
